Bioassay records (PubChem)
STK33 kinase inh: human STK33 kinase inhibition | Q9BYT3 | purified STK33, MBP phosphorylation, ADP-Glo luminescence | inhibition, % at 10 µM | 320,000 compounds, 0.073% hits | AID 2661;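 active = inhibition at or above 25%, using the most active replicate where run in duplicate; inactive = inhibition below 25%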
Target sequence (Q9BYT3 whole entry, looked up): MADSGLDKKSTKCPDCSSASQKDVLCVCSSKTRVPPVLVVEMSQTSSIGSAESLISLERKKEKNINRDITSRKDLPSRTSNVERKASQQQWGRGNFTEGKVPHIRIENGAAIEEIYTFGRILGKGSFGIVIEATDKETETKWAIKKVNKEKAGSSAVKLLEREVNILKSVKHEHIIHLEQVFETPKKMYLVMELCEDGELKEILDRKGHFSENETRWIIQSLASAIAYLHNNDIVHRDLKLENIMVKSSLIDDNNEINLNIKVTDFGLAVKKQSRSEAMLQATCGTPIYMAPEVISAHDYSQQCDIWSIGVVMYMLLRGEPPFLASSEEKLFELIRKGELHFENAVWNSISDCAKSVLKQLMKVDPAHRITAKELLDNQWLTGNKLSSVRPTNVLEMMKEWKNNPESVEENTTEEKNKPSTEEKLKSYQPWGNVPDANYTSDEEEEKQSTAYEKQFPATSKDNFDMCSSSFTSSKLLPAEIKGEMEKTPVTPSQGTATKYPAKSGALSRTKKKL
* hit, by the source's call. Some of the compounds tested; most or all hits stand in other tables.

SMILES | STK33 kinase inh
O=C(CCCNS(=O)(=O)c1cccc2nsnc12)NCc1ccc(Cl)cc1 | -0.8
CN(CC(=O)NCc1ccccn1)S(=O)(=O)c1ccc2ccccc2c1 | -0.8
NNc1ccc(S(=O)(=O)N2CCCCC2)cn1 | -0.5
CCOC(=O)CC1COCCN1C(=O)CCc1nnc(-c2ccsc2)o1 (stereo not drawn) | -1.2
C[C@@H](NC(=O)c1nc[nH]c1C(=O)N[C@@H](CCCCNC(=O)OC(C)(C)C)C(=O)OC(C)(C)C)c1ccccc1 | 0.3
COC(=O)C1CN(C(=O)c2cccc(OC(F)F)c2)c2ccccc2O1 (stereo not drawn) | -0.1
ClCCN1C2=NCCCN2c2ccccc21 | 0.3
O=C(CNC(=O)c1cccc(F)c1)N/N=C/c1cc(Br)ccc1OCc1ccccc1 | -1.1
CCn1c(N)c(C(=O)NCCOC)sc1=S | -1.8
C(/C=C/c1ccco1)=N/N1CCN(c2ccccc2)CC1 | 10
CC1CCCC(C)N1CCCNC(=O)c1ccc2nc(N3CCOCC3)sc2c1 (stereo not drawn) | 1.4
COc1ccc(CCNC(=O)C(C)c2ccc([N+](=O)[O-])cc2)cc1 (stereo not drawn) | -0.9
O=C(Nc1cccc2ccccc12)N1CCN(c2ncccn2)CC1 | -0.3
c1ccc(-c2csc(-c3ccncc3)n2)cc1 | 0.4
CCn1c(SCC(=O)NNC(=O)c2ccc(OC)cc2)nnc1C1CC1 | -0.3
COc1ccc(S(=O)(=O)N2CCCCC2)cc1NC(=O)C1COc2ccccc2O1 (stereo not drawn) | -1.3
O=C(NCc1cccs1)c1ccc(CS(=O)Cc2ccccc2Cl)o1 (stereo not drawn) | -0.3
O=C(NCc1cccs1)NC1CCCCC1 | -3.1
CN(C)C(=S)NC1CCS(=O)(=O)C1 (stereo not drawn) | -0.4
Cc1cc(C)cc(N(CCC#N)C(=O)COC(=O)C2CCN(c3ccc(C(F)(F)F)cn3)CC2)c1 | -1.0
O=C(CCC1CCCN(Cc2ccc3c(c2)CCO3)C1)NCc1ccc(F)c(F)c1 (stereo not drawn) | -1.0
O=C(Cn1ncc2c3ccccc3n(Cc3ccccc3F)c2c1=O)NCC1CCCO1 (stereo not drawn) | -0.9
O=C(O)c1c2c(nc3ccc(S(=O)(=O)N4CCC(C(=O)NC5CCCC5)CC4)cc13)CCCCC2 | -1.8
COC(=O)/C(=N/Nc1ccccc1OC)N1CCCc2ccccc21 | 0.6

7 compounds from above, arranged by the value under STK33 kinase inh, falling.
SMILES | STK33 kinase inh
C(/C=C/c1ccco1)=N/N1CCN(c2ccccc2)CC1 | 10
CC1CCCC(C)N1CCCNC(=O)c1ccc2nc(N3CCOCC3)sc2c1 (stereo not drawn) | 1.4
COC(=O)/C(=N/Nc1ccccc1OC)N1CCCc2ccccc21 | 0.6
NNc1ccc(S(=O)(=O)N2CCCCC2)cn1 | -0.5
O=C(CCCNS(=O)(=O)c1cccc2nsnc12)NCc1ccc(Cl)cc1 | -0.8
O=C(O)c1c2c(nc3ccc(S(=O)(=O)N4CCC(C(=O)NC5CCCC5)CC4)cc13)CCCCC2 | -1.8
O=C(NCc1cccs1)NC1CCCCC1 | -3.1

(continued)
SMILES | STK33 kinase inh
CCN1CCN(c2cc3nc(C)n(Cc4ccccc4)c(=O)c3cc2NC(=O)c2ccccc2F)CC1 | 2.8
CC(C)(C)C(=O)Nc1cc(C(F)(F)F)ccc1-n1ccnc1 | -1.0
CC(=O)Nc1ccc(S(=O)(=O)N2CN(c3ccc(C)cc3)c3nc4ccccc4nc32)cc1 | 2.0
CNC(=O)/C(=C/c1ccc2c(c1)OCO2)NC(=O)c1ccc(Br)cc1 | -2.4
CSc1nc2nccc(/C=C\c3ccccc3)n2n1 | -0.3
Cc1cccc(NC(=S)N2CCC(c3nc4ccccc4s3)CC2)c1 | -0.5
Cc1ccccc1NC(=O)C(C)SCc1ccccc1 (stereo not drawn) | -0.6
CCOc1ccc(CNC(=O)c2ccc(Sc3ccc(C)cc3)c(NC(C)=O)c2)cc1 | -0.7
Cc1ccn2c(=O)nc(SCC(=O)NCc3ccc4c(c3)OCO4)nc2c1 | 0.4
C/C=C/C(=O)N1CC2(CC(c3cccc(NC(=O)/C(C)=C/C)c3)=NO2)C[C@H]1C(N)=O (stereo partly drawn) | -1.7
Cc1ccc(/C=N/NC(=O)c2c(-c3ccccc3)noc2C)o1 | -1.4
COc1ccc2[nH]cc(C(=O)CN3CCCCC3)c2c1 | 0.8
O=C(Oc1ccc(-c2nnco2)cc1)N1CCCCC1 | 0.1
Cc1cnnn1-c1cccc([N+](=O)[O-])c1 | -0.8
CC(C)(C)NC(=O)C1CCCN(S(=O)(=O)c2cccc3cccnc23)C1 (stereo not drawn) | 0.5
Cc1cc(NC(=O)Nc2cccc3ccccc23)no1 | -1.2
COc1ccc(Cc2noc(CN3CCN(c4ccc(Cl)cn4)CC3)n2)cc1OC | 0.5
COC1(C)CC2C(CC1OC(=O)c1cc([N+](=O)[O-])cc([N+](=O)[O-])c1)C2(C)C (stereo not drawn) | 0.4
CCCn1c(SCC(=O)Nc2nc3ccccc3s2)nc2c1c(=O)n(C)c(=O)n2C | -0.9
COc1ccccc1C1C(C(N)=O)=C(C)Nc2nc(-c3ccc(Cl)cc3)nn21 (stereo not drawn) | -0.2
CCN(CC#CCC(O)(c1ccccc1)c1ccccc1)C(C)C | -3.6
CCN(Cc1cnn(C)c1)C(=O)c1cc(COc2ccc3c(c2)CCCC3)on1 | -1.4
O=C(c1cccc([N+](=O)[O-])c1)c1ccc2c(c1)OCCOCCOCCO2 | -3.5
Cc1ccccc1-c1noc(C(C)NC(=O)c2ccco2)n1 (stereo not drawn) | -0.2
CCOc1ccccc1NC(=O)CSc1nnc(-c2cccnc2)o1 | -0.4
CCC(=O)OC1(C)C(=O)C=C2C=C(c3ccc(C#N)cc3)OC=C2C1=O (stereo not drawn) | 0.4
COc1ccc(CCn2cnc(=O)c(C#N)c2C)cc1OC | -1.5
COc1ccc(C(CNC(=O)C(CC(C)C)NS(=O)(=O)c2ccc(C)cc2)N2CCOCC2)cc1 (stereo not drawn) | -0.4
COc1ccc(OC)c(NC(=O)c2ccc(CN3CCc4ccccc4C3)cc2)c1 | -0.6
COc1ccc(CCNC(=O)c2cccc(S(=O)(=O)N3CCc4ccccc4C3)c2)cc1 | -1.2
CCCNC(=O)NS(=O)(=O)c1ccc(Cl)cc1 | -1.9
O=C(N/C(=C\c1cccs1)C(=O)N1CCCCCC1)c1ccccc1 | -3.2
O=C(COc1cc(Cl)c(Cl)cc1Cl)Nc1ccncc1 | 1.3
CC1CCCN(Cc2c(C(=O)N3CCc4ccccc4C3)nc3ccc(Cl)cn23)C1 (stereo not drawn) | -0.6
O=C(O)C=C(Br)Br | 0.3
CC(NC(=O)CNC(=S)N(Cc1ccccc1)Cc1cccnc1)c1ccccc1 (stereo not drawn) | -0.8

Grouped by structure, those above containing a COOH group (two)
SMILES | STK33 kinase inh
O=C(O)c1c2c(nc3ccc(S(=O)(=O)N4CCC(C(=O)NC5CCCC5)CC4)cc13)CCCCC2 | -1.8
O=C(O)C=C(Br)Br | 0.3

Following part:
SMILES | STK33 kinase inh
NC(=O)c1nsc(C(=O)N(c2ccccc2)C(C(=O)NC2CCCC2)c2cccs2)c1N (stereo not drawn) | -0.7
CCCCn1c(N)c(N(CCOC)C(=O)COC(=O)Cc2cccc(OC)c2)c(=O)[nH]c1=O | -0.6
CNC(=O)CN1C(=O)NC2(CCc3ccccc3C2)C1=O (stereo not drawn) | -1.8
Cc1cc(C)cc(Nc2cc(C)nc3nc(C)nn23)c1 | -0.5
Cn1nc(C(F)(F)F)c(-c2ccc(F)cc2)c1NC(=O)Nc1ccc(F)cc1 | -0.2
CC(C)Oc1cccc(C(=O)C2CCCN(Cc3ccc4nonc4c3)C2)c1 (stereo not drawn) | -0.9
CC(=O)c1ccc(N2CCN(c3ncc(C(F)(F)F)cc3Cl)CC2)cc1 | 0.3
CC(OC(=O)CC1CCCCC1)C(=O)Nc1cccc(C#N)c1 (stereo not drawn) | 0.1
CC(C)(C)NC(=O)c1cc(-c2ccc3c(c2)OCO3)nc2ccccc12 | -0.6
O=C(Nc1ccc2nsnc2c1)c1ccc2c(c1)OCO2 | -1.0
Cc1ccc(CC(=O)NCCN2CCOCC2)cc1 | -3.8
CC(C)(C)OC(=O)NCCCCCc1nnc(SCC(=O)Nc2cccc(Cl)c2)o1 | -0.7

Arranged by count of non-hydrogen atoms (ascending): some entries from above
SMILES | STK33 kinase inh
Cc1cc(C)cc(Nc2cc(C)nc3nc(C)nn23)c1 | -0.5
CC(C)(C)NC(=O)c1cc(-c2ccc3c(c2)OCO3)nc2ccccc12 | -0.6
Cn1nc(C(F)(F)F)c(-c2ccc(F)cc2)c1NC(=O)Nc1ccc(F)cc1 | -0.2
NC(=O)c1nsc(C(=O)N(c2ccccc2)C(C(=O)NC2CCCC2)c2cccs2)c1N (stereo not drawn) | -0.7

Carrying on:
SMILES | STK33 kinase inh
CCNc1ccc(C(=O)OCC)cc1NC(=O)c1cccc(S(=O)(=O)N(C)c2ccccc2)c1 | -0.4
Cn1c(=O)c(=O)n(C)c2cc(N3CCOCC3)c(NS(=O)(=O)c3ccc(Br)cc3)cc21 | -1.1
Cc1ccc(-n2ccc(=O)c(C(=O)O)n2)cc1 | -2.2
O=C(NC1CCCCC1)c1cc(Cl)nc2ccccc12 | -0.6
CCOC(=O)Cn1c(=O)c2c(nc3n2CCS3)n(C)c1=O | 0.5
CCOc1ccc(NC(=O)C2CC(=O)N(C)C(=Nc3ccc4c(c3)OCO4)S2)cc1 (stereo not drawn) | 0.0
COc1cc2c(cc1OC)CN(c1nc(CN3CCOCC3)nc3sc4c(c13)CCCC4)CC2 | -0.5
Cc1cccc(/C=N/n2c(C)cc(C)c(C#N)c2=O)c1 | -2.0
O=C(Nc1ccc(S(=O)(=O)N2CCCC2)cc1)Nc1ccc(F)cc1F | -1.4
CCC(C)[C@H](NC(=O)N1CC(=O)Nc2ccccc21)C(=O)N[C@H](Cc1c[nH]c2ccccc12)C(=O)O (stereo partly drawn) | 0.6
O=C(CCS(=O)(=O)c1ccc(Br)cc1)NCc1cccs1 | -0.4
Cc1cccc(NC(=O)c2c(C)nn(-c3ccccc3)c2Cl)c1 | 0.4
CC(C)(C)NC(=O)/C=C/c1ccc(C(F)(F)F)cc1 | 9.6
Cc1nc(NC(=O)c2ccccc2O)sc1C | -1.0
CSCc1c(C(=O)NC2CCCc3ccccc32)oc2ccccc12 (stereo not drawn) | 1.3
COC(=O)Cc1c(C)c2ccc(OC3CCCCC3=O)c(C)c2oc1=O (stereo not drawn) | 0.4
CC1CCN(c2cc(N3CCOCC3)c([N+](=O)[O-])cc2F)CC1 | -0.4
O=C(COc1ccccc1[N+](=O)[O-])Nc1ccccc1N1CCCC1 | -0.6
Cc1nn(C(C)(C)C)c(OC(=O)CC(C)C)c1S(=O)(=O)c1ccccc1 | -1.3
COc1cc(C2NC(=O)NC(c3ccccc3)=C2C(C)=O)c(Br)cc1OCC(N)=O (stereo not drawn) | -1.2
CN(C)/C=C/C(=O)c1cccc(Cl)c1 | -0.6
COc1cc(OC)cc(-c2nnc(SCc3ccc(C(=O)O)cc3)o2)c1 | -1.7
Cc1nonc1-c1csc(N)n1 | 0.0
Cc1ccccc1C1NC(=S)NC2=C1C(=O)CC(C)(C)C2 (stereo not drawn) | 4.2
O=C(NCCCn1ccnc1)c1cccnc1 | -1.8
CCOc1cc(/C=N/NC(N)=O)ccc1OCC(=O)Nc1ccc(C)c(C)c1 | -0.4
COc1ccc(-c2nc3c(c(=O)[nH]c(=O)n3Cc3ccccc3)n2CCO)cc1 | -0.4
Cc1nn(-c2ccccc2)c(-n2cccc2)c1C(=O)O | 3.4
O=C(NC1CCCC1)C(c1ccncc1)N(C(=O)c1csnn1)c1cccc(F)c1 (stereo not drawn) | -2.3
CCCCN(C)C(=O)c1cc2c(Cl)nc3ccccc3c2s1 | -1.1
C=CCn1nnnc1SCC(=O)Nc1ccccc1C(=O)OC | -0.7
Cc1ccc(OC(=O)CCC(=O)Nc2ccc(Br)cc2)cc1 | -0.2
CC1(C)CC(=O)C2=C(C1)NCN(Cc1ccc3c(c1)OCO3)C2 | -1.8
O=C(Cc1cccc2ccccc12)NCCOc1ccccc1F | -1.0
O=C1c2ccccc2C(=O)N1CCCCc1cn(C[C@H]2CC[C@@H]([C@@H]3CC[C@H](Cn4cc(CCCCN5C(=O)c6ccccc6C5=O)nn4)O3)O2)nn1 | -0.7
Cc1ccc(-n2c(C(C)C)nc3oc4ccccc4c(=O)c3c2=O)cc1 | -1.1
CCN1CC(CN(C)Cc2nc(Cc3ccccc3)no2)CC1=O (stereo not drawn) | -0.1
COc1ccc(C(=O)NCC2CCCCC2)cc1S(=O)(=O)N1CCCC1 | -0.4
COC(=O)[C@H](Cc1ccccc1)N(C)S(=O)(=O)c1cccc(S(=O)(=O)N(C)[C@@H](Cc2ccccc2)C(=O)OC)c1 | -0.7
Cc1cc(S(=O)(=O)Nc2ccccc2C)ccc1F | 0.3
Cc1ccc(-c2nc3c4ccccc4ccn3c2CN2CCCCC2)cc1 | -3.5
CCOC(=O)c1c(C)oc2cc(Br)c(OC(=O)N3CCOCC3)cc12 | 0.1
CCn1ncc(-c2csc(N)n2)c1C | 1.3
COc1ccc(S(=O)(=O)N2CCOC2CNC(=O)C(=O)NCc2ccncc2)cc1C (stereo not drawn) | -0.5
COc1ccc2oc(C(=O)N3CCN(C(=O)c4ccco4)CC3)c(C)c2c1 | -1.3
O=C(CN1C(=O)CC(c2ccccc2)S(=O)(=O)c2ccccc21)N1CCOCC1 (stereo not drawn) | -2.5
O=S(=O)(c1ccc(Cl)cc1Cl)n1ccc2cccnc21 | -0.4
COc1ccccc1-c1oc2ccccc2c1-c1ccc2cc[nH]c2c1 | -0.2
Cc1ccc(N2CC(C(=O)Nc3ccccc3N3CCCC3)CC2=O)cc1 (stereo not drawn) | 0.1
